Screening results as filed in PubChem.
Ba CapD inh = Bacillus anthracis CapD inhibitors, primary screen, biochemical, fluorescence intensity; hit rate 0.23% among 140,000; purified CapD enzyme, fluorescence intensity read-out; hits give low values; some hits fall short of the stated cut; CapD gamma-glutamyltranspeptidase (Bacillus anthracis Ames Ancestor); z-score (no concentration beside the values);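 active means z-score under -4 in either of two replicates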;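 further: stock transfer was 100 nL into about 40 µL; score is relative to mean and spread of the plate; one replicate is shown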
AID504770 = growth inhibition of E. coli YBA685, primary screen, V. cholerae RctB inhibitors; E. coli YBA685 rctB-dependent plasmid, OD600 growth, 3 h; hits give low values; z-score (test concentration not listed); hit rate 0.27% among 130,000; AID 504770, 2011;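 active means z-score under -2 on both plates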;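 further: wells of about 30 µL received 100 nL stock; score is relative to mean and SD of the test wells; the first replicate is given; strong numbers were not always called active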
The depositor's hits bear a star; nt = not tested or not shown.

mol	Ba CapD inh	AID504770
O=c1[nH]n(CC2COC(c3ccccc3)O2)c(=O)c2ccccc12 (centres undefined)	nt	0.15
COC(=O)/C=C1/OC(c2ccc(OC)cc2)=CC1=O	-0.09	-0.75
Cc1ccc2[nH]c(O)c(N=NC(=O)c3cccc(O)c3)c2c1	-1.4	2.8
CN1CCC(NC(=O)CCCc2ccccc2)CC1	0.93	-0.8
CC1CN(C(=O)c2cc(S(=O)(=O)N3CCCC3)ccc2Cl)CC(C)O1 (centres undefined)	-1.2	1.5
Cc1nc2nc3[nH]c4ccccc4c3nn2n1	0.2	-0.85
NCCNC(=O)c1ccc(/C=N/O)nc1	-0.2	1.6
O=C(COC(=O)Cn1cnc2ccccc21)NCc1ccccc1	nt	-0.8
CN1CCN(C(=O)C2CCN(c3ncc(C(F)(F)F)cc3Cl)CC2)CC1	-0.9	nt
O=C(c1ccc2c(c1)OCCCO2)N1CCOCC1	0.33	-0.25
COc1ccc(-c2nc(SCCC(=O)O)n[nH]2)cc1	nt	0.85
NS(=O)(=O)c1ccc(NC(=O)CN2C(=O)c3ccccc3C2=O)cc1	-0.52	1.3
N#CC(Nc1cc(C(F)(F)F)cc(C(F)(F)F)c1)c1ccccc1 (centres undefined)	0.4	-0.35
CN1C(=O)C(Cc2nc3ccccc3c(=O)n2-c2ccccc2)c2cc(Br)ccc21 (centres undefined)	0.14	1.4
CCCCNc1ncc2cc3ccccc3nc2c1C#N	-0.26	-0.3
CC(NCCn1cnc2c(N)ncnc21)c1ccccc1 (centres undefined)	1.2	-0.4
CCOC(=O)C1=NOC(CNc2ncc(C(F)(F)F)cc2Cl)C1 (centres undefined)	-0.25	nt
C[C@@H]1[C@@H](c2ccc(F)c(Br)c2)N2C=Cc3ccccc3[C@@H]2C1(C#N)C#N	11	-0.2
CC(=O)NCC(c1ccccc1)c1ccccc1	-0.01	2.5
COc1ccc(/C=C/C#N)cc1	-0.6	-1.4
CC(C)COc1ccc(C(=O)OCCN2CCOCC2)cc1	-0.61	-0.2
COc1ccc(-c2cc(-c3nc(-c4cccnc4)no3)[nH]n2)cc1	0.25	0.9
Cc1nc2ccccc2cc1C(N)=O	0.085	-0.65
CCOC(=O)C1CCN(S(=O)(=O)c2cnc[nH]2)CC1	0.04	0.15
O=c1c2ccccc2c(=O)c2c1c(NC1CCCCC1)cc1oc3cc(Cl)ccc3[nH]c12	1.1	nt
CCOC(=O)c1cc2ccccc2[nH]c1=O	nt	-0.55
COC(=O)C1=C(N)Oc2c(oc(CO)cc2=O)C1c1ccccc1 (centres undefined)	-0.015	-0.25
CCOC(=O)c1c(-c2ccc(C)cc2)csc1NC(=O)c1cc2ccccc2oc1=O	0.21	nt
Cc1ccc(C(=O)OCC(=O)c2cc(C)n(CC3COc4ccccc4O3)c2C)s1 (centres undefined)	nt	1.1
Cc1nc2ccccc2c2c1C(=O)N(C1CCCCCCC1)C2=O	0.11	-1.4

Structures listed so far with a thiophene ring, fused or not:
mol	Ba CapD inh	AID504770
CCOC(=O)c1c(-c2ccc(C)cc2)csc1NC(=O)c1cc2ccccc2oc1=O	0.21	nt
Cc1ccc(C(=O)OCC(=O)c2cc(C)n(CC3COc4ccccc4O3)c2C)s1 (centres undefined)	nt	1.1

Remaining list, next part:
mol	Ba CapD inh	AID504770
COc1cc(Br)c(CN2CCN(C(=O)OCCCCCCCl)CC2)cc1OC	-0.31	nt
Cn1c(=O)n(C)c2cc(CNc3ccc(N4CCOCC4)c(C(=O)O)c3)ccc21	0.73	0.3
Cc1ccc(S(=O)(=O)c2ccc(Cl)c(N)c2)cc1	49	nt
CCNC(=O)c1cc2c(=O)n3ccccc3nc2nc1NCCCN1CCOCC1	nt	1.5
CCOc1ccc(C2CNC(=O)C2)cc1 (centres undefined)	0.82	1.9
O=C(CC1COc2ccccc2O1)Oc1ccccc1 (centres undefined)	-0.015	2.1
N/C(=N\OC(=O)CN1C(=O)c2ccccc2C1=O)c1ccccn1	-0.29	-0.5
Clc1ccc(-c2cnc3ccccc3n2)cc1	2.1	0.75
CC(=O)ON1C(c2ccccc2)[N+]([O-])=C(c2ccccc2)C1(C)C (centres undefined)	nt	-0.05
COc1cc(C2CC(=O)NC(SCC(=O)Nc3cc(C)ccc3C)=C2C#N)ccc1O (centres undefined)	-0.19	nt
COc1ccc(Cn2c(SCC(=O)c3ccccc3)nc3ccc(N4CCOCC4)cc3c2=O)cc1	0.17	-0.85
CC1CCC(NC(=O)C2c3cccn3CC(=O)N2c2cccc(F)c2)CC1 (centres undefined)	-0.51	-0.4
O=C(COc1cccc2ccccc12)N/N=C/c1ccc(Sc2nnc(-c3ccccc3)n2-c2ccccc2)o1	-0.4	nt
CC(C)N1C(=O)CSC1c1ccccc1 (centres undefined)	nt	-0.4
O=C(CCCSc1nc2ccccc2s1)N1CCN(c2ncccn2)CC1	nt	0.2
Cc1cc(C)n(C(=O)c2cccs2)n1	-0.045	0.4
c1ccc2c(c1)NC(c1ccc3c(c1)OCCO3)n1cccc1-2 (centres undefined)	21	0.05
COc1ccccc1OCC(=O)NC1CCCCC1	0.18	-1
COc1cc(OC)nc(C(SCCNC(=O)c2ccco2)c2ccccc2)n1 (centres undefined)	-0.94	nt
CCCOc1ccccc1C1NC(=O)NC(C)=C1C(=O)OCC(F)(F)C(F)(F)F (centres undefined)	0.43	nt
CCCN(CCC)CCCn1cnc2c([nH]c3ccc(F)cc32)c1=O	0.13	-0.65
COC(=O)n1c(=O)oc2cc(Cl)ccc21	-0.66	-0.55
COc1ccccc1NC(=O)c1sc2ncnc(N3CCC(C)CC3)c2c1C	1.2	nt
Cc1ccc(NC(=O)CSC2=C(C#N)C(c3ccc([N+](=O)[O-])cc3)CC(=O)N2)c(C)c1 (centres undefined)	-1	nt
CCCS(=O)(=O)N1CCn2cccc2C1c1ccc(Cl)cc1Cl (centres undefined)	nt	-0.95
Cc1cccc(-c2n[nH]c(=S)n2CC(N)=O)c1	nt	1.1
O=C(CCn1nnc2ccccc21)N1CCC(O)(c2cccc(F)c2)CC1	nt	-0.15
O=C(OCCN1CCCCC1)c1ccccc1Br	-0.52	-1.1
CC(=O)Nc1ccc(C(=O)NC(CCCCNC(=O)OCc2ccccc2)C(=O)OCc2ccccc2)cc1 (centres undefined)	0.27	nt
O=C(Cn1c(C(=O)NCc2ccco2)cc2sccc21)c1ccccc1	nt	1.1
COc1ccc(S(=O)(=O)N(CC(=O)Nc2ccc3c(c2)OCO3)c2cc(Cl)ccc2OC)cc1OC	-0.68	nt
C=CCN1C(=O)CN=C1Nc1ccccc1	nt	-0.55
COc1cc(Br)c(C2C(C(=O)OCCOc3ccccc3)=C(C)NC3=C2C(=O)CCC3)cc1OC (centres undefined)	22	nt
Cc1ccc(-c2csc3ncnc(NCCC(=O)O)c23)cc1	-0.41	-0.7
Cc1ccc(NC(=O)CC2SC(=O)NC2=O)c(C)c1 (centres undefined)	-0.98	nt
CCOC(=O)CSc1nnc(NC(=O)CC)s1	0.4	0.3
Cc1cc(=O)oc2c3c(ccc12)OCN(CCc1ccccc1)C3	90	0
O=C(NCC1CCCO1)Nc1c[nH]c2c(Cl)cccc2c1=O (centres undefined)	nt	0.2
CCOC(=O)N(c1ccccc1)S(=O)(=O)c1ccc(Cl)cc1	-1.4	-0.25
CCS(=O)(=O)c1ccc2oc(=S)n(CN(C)C3CCCCC3)c2c1	nt	-0.45
COc1ccc(OC)c(-c2cc(C(=O)NCCCn3ccnc3)no2)c1	18	-0.25
O=S(=O)(c1ccc(Oc2ccc3ccccc3c2)nc1)N1CCOCC1	nt	0.95
CS(=O)(=O)N1CCN(c2c(Cl)cncc2Cl)CC1	0.21	0.75
CCOc1ccc(N2C(=O)/C(=C\c3ccccc3OC)S(=O)(=O)C2c2cccc([N+](=O)[O-])c2)cc1 (centres undefined)	-0.28	nt
Cc1ccc(S(=O)(=O)NNC(=O)c2sccc2-n2cccc2)cc1	-0.33	nt

Compounds listed so far containing a CF3 group:
mol	Ba CapD inh	AID504770
CN1CCN(C(=O)C2CCN(c3ncc(C(F)(F)F)cc3Cl)CC2)CC1	-0.9	nt
N#CC(Nc1cc(C(F)(F)F)cc(C(F)(F)F)c1)c1ccccc1 (centres undefined)	0.4	-0.35
CCOC(=O)C1=NOC(CNc2ncc(C(F)(F)F)cc2Cl)C1 (centres undefined)	-0.25	nt
CCCOc1ccccc1C1NC(=O)NC(C)=C1C(=O)OCC(F)(F)C(F)(F)F (centres undefined)	0.43	nt

The listing continues.
mol	Ba CapD inh	AID504770
Cc1nc(SCC(=O)Nc2cccc3ccccc23)c(C#N)c(C)c1Cl	0.89	nt
Cc1ccc(C2=N/C(=C\C(Br)=C\c3ccccc3)C(=O)O2)cc1[N+](=O)[O-]	-0.28	nt
O=C(NN=C1CCCC1)c1cc(-c2ccccc2)n[nH]1	nt	1.2
Cc1ccc(C(=O)NCC2CCCO2)o1 (centres undefined)	0.12	1.2
O=C1NC(=O)C(=Cc2ccc(N3CCOCC3)cc2)C(=O)N1	nt	-0.7
CCNC(=O)C(C)Oc1ccc(Cl)c(C)c1 (centres undefined)	-0.015	-0.65
CC(=O)Nc1c(=O)[nH]n2c(C)cc(C)nc12	-0.68	-0.1
CS(=O)(=O)c1cnc(-c2ccccn2)nc1-c1cccc(C(F)(F)F)c1	-0.39	nt
O=C(Nc1cnn(C23CC4CC(CC(C4)C2)C3)c1)c1cc(-c2ccccc2F)no1	-1	1.6
O=C(O)CSc1ccc2nnc(-c3cccnc3)n2n1	nt	0
COc1ccccc1NC(=O)CN1C(=O)C2C3c4ccccc4C(c4ccccc43)C2C1=O (centres undefined)	0.01	nt
Cc1ncc([N+](=O)[O-])n1S(=O)(=O)c1ccccc1	-0.23	nt
O=C(O)C(c1ccccc1)c1cn2cc(Cl)ccc2n1 (centres undefined)	2.3	-0.55
O=S(=O)(NNc1cnc2ccccc2n1)c1ccccc1C(F)(F)F	1.1	2.3
CCOc1cc(C(=O)Nc2cc(-c3nc4cc(Cl)ccc4o3)ccc2C)cc(OCC)c1OCC	-0.11	nt

Single records (already shown). Values in the order: Ba CapD inh	AID504770
`O=C(O)CSc1ccc2nnc(-c3cccnc3)n2n1` across the screens: nt	0
`Cc1ccc(C2=N/C(=C\C(Br)=C\c3ccccc3)C(=O)O2)cc1[N+](=O)[O-]` across the screens: -0.28	nt
`Cc1nc(SCC(=O)Nc2cccc3ccccc23)c(C#N)c(C)c1Cl` across the screens: 0.89	nt
`O=C1NC(=O)C(=Cc2ccc(N3CCOCC3)cc2)C(=O)N1` across the screens: nt	-0.7

Continued.
mol	Ba CapD inh	AID504770
CC(C)OC(=O)Nc1ccccc1	-0.26	-0.5
O=C(CSc1nc2ccccc2o1)OCC(=O)N1c2ccccc2Sc2ccccc21	-0.025	-0.05
O=C(c1cc(F)cc(F)c1)N1CC=C(c2ccccc2)CC1	nt	-0.85
COc1ccc2oc(C(=O)N3CCN(S(=O)(=O)c4ccc5c(c4)OCCO5)CC3)c(C)c2c1	nt	-0.55
CC(=O)Nc1ccc(Nc2c3c(c(C#N)c4nc5ccccc5n24)CCCC3)cc1	-0.57	-0.85
CC(C)(CC(=O)O)CC(=O)N1CCN(c2cc(C(F)(F)F)ccn2)CC1	67	nt
Cc1nc(-c2c(C(=O)NNC(=O)OCCSCc3ccc4nonc4c3)noc2C)cs1	0.02	nt
N#Cc1ccc(S(=O)(=O)NC2CCCCNC2=O)cc1 (centres undefined)	0.46	-0.4
CCOc1ccc(Br)cc1/C=C(\C)[N+](=O)[O-]	-1.5	nt
OC1CCN(C(=S)Nc2ccc(Nc3ccccc3)cc2)CC1	0.26	-0.25
C=C1c2ccccc2NC(=S)N1Cc1ccc2c(c1)OCO2	nt	0.85
COc1cccc(-c2nc3sc4c(c3c(=O)n2CC(=O)Nc2ccc(OC)c(OC)c2)CCCC4)c1	11	nt
CCOC(=O)CCN1C(=O)/C(=C/c2ccc3c(c2)OCO3)SC1=S	-2.3	nt
Cc1c(C(=O)NCc2ccco2)oc2c1C(=O)CCC2	-0.42	-0.85
COc1ccc(-c2c(C)nn3c(N4CC(C)CC(C)C4)cc(C)nc23)cc1OC (centres undefined)	1.9	0.15
Cc1ccsc1C=Nc1ccccc1N1CCCCC1	nt	-0.65
COC(=O)C1=NNC2C(=O)N(c3ccccc3)C(=O)C12 (centres undefined)	-0.3	nt
N#C/C=C(\c1ccc(F)cc1)N1CCOCC1	nt	-0.1
CC(=O)N1c2ccccc2N=C(c2ccc(I)cc2)CC1c1ccc(F)cc1 (centres undefined)	-0.23	nt
Cc1ccc(Cn2c(C)c(CNCc3ccco3)c(C(=O)O)c2C)cc1	-0.86	2.8
CC(=O)NC1=NC(=O)/C(=C/c2ccc(-c3ccc(F)cc3F)o2)S1	0.31	nt
COc1ccc(/C=C(\C#N)c2ccccn2)cc1	-1.3	nt
CCOc1ccccc1N/C(SCc1ccccc1Cl)=C(/C#N)C(=O)NCc1ccccc1	-0.11	nt
O=C(O)COc1ccccc1	nt	-2.9

Some of the compounds tested. The share of hits here may be higher or lower than overall.
